OX1R antag-1 = OX1R (human) antagonism. OX1R-expressing cells, FRET antagonist read-out. inhibition, % at 6.6 µM. 330,000 tested, 1.8% active. AID 485270; in the data active means inhibition mostly above about 38%, no sharp cut-off; inactive means mostly below about 40%;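 further: 0% = agonist challenge alone and 100% = reference antagonist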
Target sequence (O43613 whole entry, looked up): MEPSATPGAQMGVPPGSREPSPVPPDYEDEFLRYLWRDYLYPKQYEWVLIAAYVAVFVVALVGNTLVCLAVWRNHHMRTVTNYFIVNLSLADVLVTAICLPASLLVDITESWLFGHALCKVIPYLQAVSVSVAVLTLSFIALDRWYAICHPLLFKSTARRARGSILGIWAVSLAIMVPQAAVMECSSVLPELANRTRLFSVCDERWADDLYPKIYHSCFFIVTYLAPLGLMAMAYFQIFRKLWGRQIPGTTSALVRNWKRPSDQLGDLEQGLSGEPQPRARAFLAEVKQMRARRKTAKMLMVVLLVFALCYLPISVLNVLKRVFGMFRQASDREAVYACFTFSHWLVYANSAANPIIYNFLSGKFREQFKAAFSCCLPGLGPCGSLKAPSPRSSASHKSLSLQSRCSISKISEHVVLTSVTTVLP
OX1R antag-2 = antagonists of human orexin 1 receptor; 330,000 tested, 0.43% active; AID 434989; inhibition, % at 5 µM; CHO/OX1R cells, Fluo-8 calcium fluorescence, orexin A;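 active means inhibition above its plate's threshold, mean inhibition of all tested compounds on the plate plus 3 SD, cut at about 37% in these data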;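 further: 0% = orexin A challenge wells and 100% = SB-334867-A antagonist wells; not every result past the cut was called active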
* marks the source's active call; other numbers are inactive results. The list is partial, and most or all hits are left out here.

SMILES | OX1R antag-1 | OX1R antag-2
COc1ccc(C(C)=O)cc1CSc1nncn1-c1ccccc1 | 15 | -16
C=CCSc1nc2sc3c(c2c(=O)n1CC)CCc1ccccc1-3 | 11 | -18
Cc1ccc(-n2nc(CN3CCOCC3)c(-c3ccccc3)c2N)cc1Cl | 34 | -34
CC(C)(CN=C1NS(=O)(=O)c2ccccc21)CNC(=O)CN1C(=O)c2ccccc2C1=O | 18 | -2
CCC1=C(OC(=O)N(CC)CC)N2C(=O)OC(=NCC(=O)OC)[C@]2(C)[C@H]2C1=CC[C@H]1C(=O)N(CC(=O)OC)C(=O)[C@H]12 | 20 | -6
COc1ccc(-c2nc(C#N)c(N3CCOCC3)o2)cc1OC | 13 | -21
Cc1nn(-c2ccccc2)c(C)c1CCC(=O)O | 8 | 0
COc1ccc(N2CCN(CCCNC(=O)Cn3c(=O)c4cccn4c4cccnc43)CC2)cc1 | 2 | -25
COc1cc(NC(=O)c2cc(-c3ccc4c(c3)OCO4)on2)cc(OC)c1OC | 18 | -28
Cc1ccc(CNC(=O)Cn2c(=O)n(CC(=O)N3CCCCC3)c(=O)c3sccc32)cc1 | 18 | -22

Arranged by length of the SMILES (high to low): some entries from above.
SMILES | OX1R antag-1 | OX1R antag-2
CCC1=C(OC(=O)N(CC)CC)N2C(=O)OC(=NCC(=O)OC)[C@]2(C)[C@H]2C1=CC[C@H]1C(=O)N(CC(=O)OC)C(=O)[C@H]12 | 20 | -6
CC(C)(CN=C1NS(=O)(=O)c2ccccc21)CNC(=O)CN1C(=O)c2ccccc2C1=O | 18 | -2
COc1ccc(N2CCN(CCCNC(=O)Cn3c(=O)c4cccn4c4cccnc43)CC2)cc1 | 2 | -25

Further results follow:
SMILES | OX1R antag-1 | OX1R antag-2
Cc1ccc(NC(=O)CCC(=O)O)cc1F | 2 | -7
N#Cc1cccc(C(c2nnnn2Cc2ccccc2)N2CCCC2)c1 (stereo not given) | 17 | -11
CC(COc1ccc(C(C)C)cc1)NC(=O)c1ccc(Br)o1 (stereo not given) | 9 | -17
COc1ccc(C(=O)NC(=S)N2CCNC(=O)C2CC(=O)OC(C)C)cc1 (stereo not given) | 20 | -14
COc1cc2c(cc1OC)CN(CC(=O)Nc1ccc(S(=O)(=O)N(C)C)cc1)CC2 | 16 | -11
N#C/C(=C\Nc1ccc2cn[nH]c2c1)c1nc(-c2ccc(Cl)cc2)cs1 | 2 | -9
COc1ccc(C)cc1S(=O)(=O)n1nc(C)cc1C | 3 | -3
NS(=O)(=O)c1ccc2nc(NC(=O)c3ccc(Br)o3)sc2c1 | -7 | -8
Cc1ccc(-n2c(=O)[nH]cc(C(=O)Nc3ccc4c(c3)OCCO4)c2=O)cc1C | 7 | -17
CC1CCN(c2ccc(C(=O)NCc3cccs3)cn2)CC1 | 9 | -21
O=C(CN(C(=O)CCC(=O)Nc1nccs1)c1ccccc1F)NCC1CCCO1 (stereo not given) | 30 | -11
CC(C)CNC(=O)NC(=O)COC(=O)c1cc(F)cc(F)c1 | 9 | -10
Nn1c(C2COc3ccccc3O2)n[nH]c1=S (stereo not given) | 51 | 2
Cc1cc2c(n1-c1ccc(Cl)cc1)CC(C)(C)CC2=O | 17 | -33
Cc1ccc(Cl)cc1NS(=O)(=O)c1ccc2c(c1)NC(=O)C(C)C(=O)N2 (stereo not given) | 29 | -16
COC(=O)CNC(=O)c1ccccc1C | 21 | -8
COc1ccc(N(C(C)C(=O)Nc2cccnc2)S(C)(=O)=O)cc1 (stereo not given) | 9 | -12
COC(=O)Sc1nnc(-c2ccc(Br)cc2)o1 | 14 | -15
Cc1c(C)n(C)c2ccc(C(=O)NCCCN3CCOCC3)cc12 | 8 | -19
CN(c1ccccc1)S(=O)(=O)c1cccc(C(=O)OCC(=O)NCCCN2CCCC2=O)c1 | 10 | 0

A second format for 4 compounds above:
Cc1cc2c(n1-c1ccc(Cl)cc1)CC(C)(C)CC2=O
  OX1R antag-1: 17	OX1R antag-2: -33
Cc1ccc(Cl)cc1NS(=O)(=O)c1ccc2c(c1)NC(=O)C(C)C(=O)N2 (stereo not given)
  OX1R antag-1: 29	OX1R antag-2: -16
COC(=O)CNC(=O)c1ccccc1C
  OX1R antag-1: 21	OX1R antag-2: -8
COc1ccc(N(C(C)C(=O)Nc2cccnc2)S(C)(=O)=O)cc1 (stereo not given)
  OX1R antag-1: 9	OX1R antag-2: -12

New compounds follow:
SMILES | OX1R antag-1 | OX1R antag-2
O=C(CCN1c2ccccc2Sc2ccccc21)OCC(=O)N1CCN(C(=O)c2ccco2)CC1 | 23 | -21
CC(CC(=O)Nc1nc2ccccc2[nH]1)n1ccnc1 (stereo not given) | 8 | -2
COc1ccc(N2CCN(C(=O)CSc3ccccc3N)CC2)cc1 | 8 | -26
COc1ccc(OC)c(-c2cc(C(=O)Nc3sc4c(c3C#N)CCC(C)C4)c3ccccc3n2)c1 (stereo not given) | -3 | -26
CCn1c(CCC(=O)Nc2ccccc2F)nnc1SCC(=O)Nc1ccc(OC)cc1 | -3 | -14
CN(CC(=O)Nc1ccc(F)c(F)c1F)c1ncnc2sccc12 | 16 | -19
Cc1nn(C)c(C)c1S(=O)(=O)N1CCC(C(=O)NC2CCCCCC2)CC1 | 6 | -8
CCN1CCN(Cc2cc(=O)oc3cc4c(cc23)CCC4)CC1 | 19 | -41
COCCNC(=O)CN(CC1CCCO1)C(=O)CCC(=O)Nc1ccccn1 (stereo not given) | 0 | 5
CC(=O)Nc1ccc(S(=O)(=O)Nc2ccc3ccccc3n2)cc1 | 23 | -9
CC(C)NS(=O)(=O)c1ccc(CCC(=O)NCc2ccncc2)cc1 | 0 | -3
Cc1c(Cl)cccc1NC(=S)N1CCN(C(=O)C2CCCO2)CC1 (stereo not given) | 7 | -12
CCN(CC)S(=O)(=O)c1ccc(OCC2CCCCO2)c([N+](=O)[O-])c1 (stereo not given) | 9 | -12
Cc1ccc(-c2csc(-c3cc(C)on3)n2)cc1 | 14 | -25
COc1ccc(NS(=O)(=O)c2cccs2)c(OC)c1 | 7 | -3
COc1ccccc1-n1c(N)c(C(N)=O)sc1=S | 22 | -10
CCOC(=O)Cn1nc(C)n(-c2cccc(Cl)c2)c1=O | 7 | -10
COc1ccc(C2=[N+](C)CCn3cccc32)c(OC)c1 | 12 | -3
O=C(NCCN1CCN(Cc2ccccc2)CC1)c1cc2c(=O)[nH]c3ccccc3c2s1 | 7 | -21
CNC(=S)N/N=C/C1=CCC2CC1C2(C)C (stereo not given) | 15 | -11
CN(CCN1CCc2ccccc2C1)Cc1nc(-c2ccc3c(c2)OCO3)no1 | 19 | -36
CC(C)C1N=C2c3ccccc3N=C(SCc3cc(=O)n4cc(Cl)ccc4n3)N2C1=O (stereo not given) | 14 | -20
Cc1ccnc2nc(C(=O)Nc3ccc(N4CCOCC4)cc3)nn12 | 10 | 4
O=C(COCc1cc(-c2ccc3c(c2)OCO3)on1)N1CCN(c2ccc(F)cc2)CC1 | 29 | -6
Nn1c(SCc2ccccc2)nnc1C1CCCCC1 | 3 | -7
Cc1cc(Br)cn2cc(C(=O)O)nc12 | 10 | 0
CC(=O)Nc1ccc(S(=O)(=O)N2CCN(Cc3ccccc3[N+](=O)[O-])CC2)cc1 | 10 | -13
COc1ccc(C2=NN(c3ccccc3)C(c3cn(CCC(=O)O)nc3-c3ccccc3)C2)cc1 (stereo not given) | 22 | 2
Cc1ccc(CNC(=O)C2CCCN(S(=O)(=O)N3CCC(C)CC3)C2)cc1 (stereo not given) | 16 | -11
O=C(CS(=O)(=O)c1ccc(F)cc1)NCc1ccccc1 | 5 | -3
CC(=O)c1cn(CC(=O)Nc2ccccc2)c2ccccc12 | 9 | 8
Cc1ccc2nc(-c3ccncc3)cc(C(=O)Nc3ccc(F)cc3C)c2c1 | 22 | -35
O=C(NC(=S)Nc1ccccc1[N+](=O)[O-])c1ccccc1 | 19 | -15
COC(=O)c1ccc(NC(=O)CSc2nnc(-c3ccncc3)n2C)cc1 | 14 | -17
CN1CCN(S(=O)(=O)c2ccc(NC(=O)c3cccs3)cc2)CC1 | 0 | -14
O=C(O)C1(P(=O)(c2ccccc2)c2ccccc2)CCCC1 | 5 | -15
CCCCC1(C)OC(=O)C(=Cc2ccc(SC)cc2)C(=O)O1 (stereo not given) | 8 | -3
O=C(O)C1CCN(S(=O)(=O)c2ccc3c(c2)OCCCO3)CC1 | -1 | 3
Fc1ccc(C2CCCN2Cc2nc(-c3cnccn3)no2)cc1 (stereo not given) | 21 | -33
COCCNC(=O)NC12CC3(C)CC(C)(CC(C)(C3)C1)C2 | 11 | -13
O=C(O)CCCC(=O)NNc1nc(-c2ccccc2)c2cc(Cl)ccc2n1 | 2 | 5
O=C(NCCCn1ccnc1)C(=O)NCc1ccccc1 | 6 | -15
O=C(c1cncc(Br)c1)N1CCN(c2ccc([N+](=O)[O-])cc2)CC1 | 26 | -1
CNC(=O)COC(=O)COc1ccc2c(C)cc(=O)oc2c1 | 5 | -10
Cc1cc(C(=O)NCCCC(=O)O)c(C)o1 | 2 | 8
CC1CCN(S(=O)(=O)c2ccc3[nH]c(=O)ccc3c2)CC1 | 5 | -2
CC(C)(Cc1ccc(O)cc1)NC(=O)SCc1ccccc1 | 21 | -16
O=C(CSCc1ccc([N+](=O)[O-])cc1)NC1CC1 | 17 | 6
CCOC1=NN(c2ncc(C(F)(F)F)cc2Cl)C(=O)/C1=C/N(C)C | 22 | -26
CS(=O)(=O)N(CC(=O)NCC1CCCO1)c1cc(Cl)c(Cl)cc1Cl (stereo not given) | 18 | -10
Continued.
SMILES | OX1R antag-1 | OX1R antag-2
COc1ccc(N(CC(=O)N2c3ccccc3CC2C)S(=O)(=O)c2c(C)nn(C)c2C)cc1 (stereo not given) | 21 | -36
CN1CCN(c2nnc(-c3cccs3)c3ccccc23)CC1 | 12 | -13
CCOC(=O)c1ccc(NC(=O)CN2C(=O)CN(C(C)=O)C2=S)cc1 | 11 | 4
Cn1c(=O)c2c(nc(SCC(=O)c3ccc(F)cc3)n2C)n(C)c1=O | -3 | -11
CCCCOc1cc(CC2CNC(=O)N2)ccc1OC (stereo not given) | 22 | 4
NCC12CC3CC(C1)CC(CN)(C3)C2 | 16 | -5
Cc1c(CC(=O)N2CCN(C(=O)C3COc4ccccc4O3)CC2)c(=O)oc2cc(O)ccc12 (stereo not given) | 14 | -7
COc1ccc(-c2cc(C(=O)Nc3cccc(Cl)c3)no2)cc1 | 16 | -4
COC(=O)c1ccccc1NS(=O)(=O)c1ccc2c(c1)oc(=O)n2C | 14 | -25
COc1cccc(CN(C)C(=O)CSC(C)C(=O)Nc2cc(C)on2)c1OC (stereo not given) | 22 | -19

Reformatted tab-delimited: entries from further up
SMILES	OX1R antag-1	OX1R antag-2
CC(C)CNC(=O)NC(=O)COC(=O)c1cc(F)cc(F)c1	9	-10
CCCCOc1cc(CC2CNC(=O)N2)ccc1OC (stereo not given)	22	4
Cc1ccc(-n2c(=O)[nH]cc(C(=O)Nc3ccc4c(c3)OCCO4)c2=O)cc1C	7	-17
O=C(O)C1(P(=O)(c2ccccc2)c2ccccc2)CCCC1	5	-15
Cc1ccc(CNC(=O)Cn2c(=O)n(CC(=O)N3CCCCC3)c(=O)c3sccc32)cc1	18	-22
O=C(O)C1CCN(S(=O)(=O)c2ccc3c(c2)OCCCO3)CC1	-1	3

(listing goes on)
SMILES | OX1R antag-1 | OX1R antag-2
O=C(c1ccco1)N1CCN(C(c2ccccn2)c2nnnn2C2CCCC2)CC1 (stereo not given) | 3 | -19
COc1ccc(-c2csc(NC(=O)COC(=O)C3=COCCO3)n2)cc1 | 6 | -25
O=C(NC1(C(F)(F)F)C(=O)Nc2c1c(=O)[nH]c(=O)n2-c1ccccc1)c1cccnc1 (stereo not given) | -2 | 1
CC1Oc2ccccc2C(=O)N(CC(=O)c2ccc3c(c2)OCCO3)C1=O (stereo not given) | 24 | -26
O=S(=O)(Nc1nc(CN2CCOCC2)nc2sc3c(c12)CCCC3)c1cc(F)ccc1F | 18 | -41
CCOC(=O)c1c(NC(=O)CCS(=O)(=O)c2ccccc2)sc2c1CCN(C)C2 | 26 | 19
O=C(NCC(NS(=O)(=O)OCC(Cl)(Cl)Cl)c1ccccc1)C(F)(F)F (stereo not given) | 35 | -21
COC(=O)c1cc(OC)c(OC)cc1NC(=O)CCCCCN1C(=O)CCC1=O | 8 | -9
COc1ccc(Cl)cc1C(=O)NCc1cn(C)nc1C | 14 | -2
C=CCOc1cccc(C(=O)N2CCCC(CNS(=O)(=O)c3cccs3)C2)c1 (stereo not given) | 16 | -31
Cc1cc(C)n(-c2ccc([N+](=O)[O-])cc2)n1 | 45 | -28
CC(=O)Nc1ccc(C(=O)CSc2nnnn2C(C)C)cc1 | 4 | 3
Cc1ccc(SCc2[nH]nc3c2C(c2ccc(C)o2)C(C#N)=C(N)O3)cc1 (stereo not given) | 3 | -3
O=C(NCc1cccnc1)C12CC3CC(CC(C3)C1)C2 | 9 | -8
O=C(CSc1nccc(-c2cccs2)n1)Nc1cccc(Cl)c1Cl | 22 | -19
COc1ccc2c(c1)c1nc3ccccc3nc1n2Cc1ccc(OC)c(OC)c1 | 5 | 1
CCOC(=O)C/C(C)=N/NC(=O)c1cccs1 | 17 | 6
O=C(CNC(=O)c1ccco1)Nc1cccc(Cl)c1 | -13 | -3
CC(C)c1ccccc1OCCNC(=S)NC(=O)c1cccnc1 | 38 | -11
NS(=O)(=O)c1ccc(NC(=O)CN2C(=O)CCC2=O)cc1 | 6 | 0
O=C(CCC1CCCCC1)Nc1nncs1 | -5 | -15
O=C(CN1C(=O)C2CC=CCC2C1=O)NC1CCCc2ccccc21 (stereo not given) | 25 | -16
O=C1C2C3CCC(C3)C2C(=O)N1CNc1ccccc1 (stereo not given) | 7 | -12
CCn1cc([N+](=O)[O-])c(C(=O)N2N=C(c3ccc(OC)cc3OC)CC2c2ccccc2O)n1 (stereo not given) | 24 | -17
Cc1ccc(C(=O)Nc2ccccc2NC(=O)c2ccc(C)o2)o1 | 12 | -5
O=C(Nc1ccc(Nc2ccccc2)cc1)C(Cl)Cl | 14 | 5
CC1=NN(C(=O)Cc2ccc(C)cc2)C(O)(c2cccnc2)C1 (stereo not given) | 14 | -6

Compound activity from PubChem.
